Screening results deposited in PubChem BioAssay by University of Kansas High Throughput Screening Laboratory.
mHTT-CaM PPI inh = inhibitors of human mutant huntingtin-calmodulin interaction; P42858; AlphaScreen His-mHTT/GST-CaM binding, luminescence; inhibition, % at 15 µM; hit rate 3.6% among 190,000; AID 1671202; in the data active = inhibition above about 50%;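 also: 0% = both proteins with DMSO and 100% = one protein alone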
The depositor's hits bear a star. These rows are one share of the data, and most or all hits are left out here.

smiles	mHTT-CaM PPI inh
c1ccc(CSc2n[nH]c(-c3ccccc3)n2)cc1	-10
COc1ccc(C2=CC(c3c(F)cccc3Cl)n3ncnc3N2)cc1 (stereo unspecified)	2
CCOc1ccc2nc(Nc3nc(C)c(Cc4ccccc4)c(=O)[nH]3)nc(C)c2c1	6
O=[N+]([O-])c1ccccc1/C=C/c1ccc2cccc(O)c2n1	46
COc1ccc(C=CC(=O)c2ccc(Br)cc2)c(OC)c1	-5
COc1cc2nnc3[nH]nc(C)c3c2cc1OC	-3
Cc1ccc(C(=O)CC2OC(=O)c3ccccc32)cc1 (stereo unspecified)	-1
Cc1c(N=Cc2ccc(N(C)C)cc2)c(=O)n(-c2ccccc2)n1C	1
CCOc1ccc2nc(NS(=O)(=O)c3ccc([N+](=O)[O-])cc3)sc2c1	1

Molecules shown so far containing four or more nitrogen atoms, in the order listed:
smiles	mHTT-CaM PPI inh
COc1ccc(C2=CC(c3c(F)cccc3Cl)n3ncnc3N2)cc1 (stereo unspecified)	2
CCOc1ccc2nc(Nc3nc(C)c(Cc4ccccc4)c(=O)[nH]3)nc(C)c2c1	6
COc1cc2nnc3[nH]nc(C)c3c2cc1OC	-3
Cc1c(N=Cc2ccc(N(C)C)cc2)c(=O)n(-c2ccccc2)n1C	1
